Screening data: PubChem, National Center for Advancing Translational Sciences (NCATS)
2A StopGo: FMDV 2A StopGo reporter, luciferase signal; human cells with a luciferase reporter of 2A StopGo recoding; control for the full effect not named in the record; Potency, µM (highest dose often 57.9 µM), without a hit: at the top dose signal change, negative = less light; 410,000 compounds, 1.2% hits; AID 1159524; active = well fitted falling curve with a large enough effect; inconclusive = small, poorly fitted or top-dose-only effect; inactive = no such curve, though single readings can be large or run the other way; tested in HEK293T cells; further: on the % scale 0 is the no-effect control and ±100 the full control effect; nearly all actives have a fitted effect of over 45% in size; luciferase light after 4 h
RE007 growth inh: less growth of the S. pombe RE007 Vpr strain; S. pombe RE007 Vpr strain, BacTiter-Glo ATP luminescence, 24 h; control for the full effect not named in the record; Potency, µM (doses to about 92.2 µM), for inactives: at the top dose activity change, negative = less growth; 360,000 compounds, 0.21% hits; active = well fitted falling curve with a large enough effect; inconclusive = small, poorly fitted or top-dose-only effect; inactive = no such curve, though single readings can be large or run the other way;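 further: on the % scale 0 is the no-effect control and ±100 the full control effect; nearly all actives have a fitted effect of over 50% in size; the assay follows cell death caused by Vpr and the record does not say whether a fall means rescue or toxicity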
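Fission yeast strain RE007, carrying one chromosomally integrated HIV-1 vpr copy, was seeded at OD 0.01 in PMG+AL medium with 23 nL pinned compound. After 24 h at 30 °C and 99% humidity, viability was read by BacTiter-Glo luminescence.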
SARS PLP yeast: blocks SARS-CoV papain-like protease in a yeast assay; Potency, µM (doses to about 32.9 µM), for inactives: top-dose activity, positive = growth rescue; 330,000 compounds, 0.19% hits; S. cerevisiae expressing SARS-CoV PLpro, growth rescue; control for the full effect not named in the record; active means well fitted rising curve with a large enough effect; inconclusive means small, poorly fitted or top-dose-only effect; inactive means no such curve, though single readings can be large or run the other way; further: 0% is about no effect; nearly all actives have a fitted effect of over 55% in size; growth read by luminescence after 48 h
Starred values were filed as active, the others as inactive; ? = inconclusive; [ ] = remark or other dose. Potency means the concentration at half of the fitted maximal effect. Not all compounds are listed; rates above refer to the full screens.

Screens in order – 2A StopGo | RE007 growth inh | SARS PLP yeast
COc1ccc(C(CCN2CCOCC2)c2c(OC)cc(OC)c3ccc(=O)oc23)cc1 (configuration not stated)
→ 7.1% | -12.1% | 18.0%
CCN(CC)CCN(C(=O)C1=COCCO1)c1nc2cc3c(cc2s1)OCO3
→ 0.3% | -3.2% | 2.9%
O=C(COc1ccc(Cl)cc1Br)NC1CC1
→ 14.0% | -22.3% | -6.4%
Cc1cc(C)c(C)c(S(=O)(=O)Nc2ccccc2N2CCOCC2)c1C
→ -7.8% | 3.0% | -8.3%
O=C(NCC(=O)N1CCN(C/C=C/c2ccccc2)CC1)c1ccc(OC(F)F)cc1
→ ? | 0.6% | -0.7%
ClCC1CN(Cc2ccccc2Cl)CCO1 (configuration not stated)
→ -18.4% | 0.1% | -3.0%
CC[C@]12c3[nH]c4cc(-c5ccco5)ccc4c3CCN1C(=O)[C@@H](CC(=O)NCc1cccc(C(F)(F)F)c1)C[C@@H]2C(=O)N1CCN(C(=O)C2CC2)CC1
→ ? | -20.2% | -11.8%
O=C(N/N=C(\c1ccccc1)c1ccccn1)c1cccc([N+](=O)[O-])c1
→ -7.9% | -7.4% | -19.6%
O=C(CN1C(=O)C2C3C=CC(C3)C2C1=O)Nc1ccc(F)cc1 (configuration not stated)
→ -19.2% | -11.0% | -0.2%
CC1CC(=O)Nc2ccccc2N1C(=O)Cn1cnc2ccccc2c1=O (configuration not stated)
→ -1.8% | -18.8% | -0.8%[6.58 µM]
CC[C@]12c3[nH]c4ccc(Cl)cc4c3CCN1C(=O)[C@@H](CC(=O)NCC13CC4CC(CC(C4)C1)C3)C[C@@H]2C(=O)N1CCN(C(=O)c2ccco2)CC1
→ ? | 4.9% | -20.2%
NC(=O)c1cc([N+](=O)[O-])ccc1Nc1ccccc1
→ -11.8% | 5.2% | -2.0%
N#CCCCc1cc2cc(F)ccc2cn1
→ -3.9% | 3.4% | -5.8%
CSCCC(NC(=O)COc1ccccc1)C(=O)N1CCOCC1 (configuration not stated)
→ -13.2% | 10.3% | 7.8%
Cc1ccc(OCCNC(=O)CCNC(=O)c2ccc(Cl)cc2)cc1
→ -3.6% | -12.1% | -1.6%
O=C(NCCCN1CCCC1=O)C1CCN(S(=O)(=O)c2ccc(Cl)cc2)CC1
→ -2.6% | 3.3% | -5.3%[6.58 µM]
CCOc1cc(/C=C(\C(=O)O)c2ccc(S(=O)(=O)N3CCCC3)s2)ccc1OC
→ -12.2% | 13.6% | 1.5%
O=C(OCC(=O)N1CCCCCC1)c1ccccc1Br
→ 48.3%[activator] | -23.7% | -6.3%
Cc1ccc(C)c(NC(=O)CN(C)C(=O)c2cc3ccccc3oc2=O)c1
→ 43.9%[activator] | 2.0% | 0.9%
COc1ccc(Cl)cc1NC(=O)CN(C)C(=O)c1ccc2n[nH]nc2c1
→ -8.8% | 12.4% | 3.6%
C#CCOCCOCCOCCNc1nc(N2CCN(C(=O)CCCCCCCCCCNC(=O)Cn3cc(C[C@@H](C)O)nn3)CC2)nc(N2CCN(C(=O)CCCCCCCCCCNC(=O)[C@@H](CCC(=O)O)n3cc(CCCCCN)nn3)CC2)n1
→ -18.9% | 5.1% | -0.6%
COc1cc(C)ccc1OCC(=O)Nc1ccc2c(c1)OCO2
→ 59.9%[activator] | -11.2% | -14.4%
Cc1ccc(S(=O)(=O)Nc2nc(CN3CCOCC3)nc3sc(C)c(C)c23)cc1
→ 18.1% | -0.8% | -9.3%
CCN(CC)S(=O)(=O)c1ccc(/C=C/C(=O)OCC(=O)NNC(=O)c2ccc(OC)cc2)cc1
→ -1.2% | 10.3% | 2.5%
COc1ccc(-c2cn(-c3ccc(C)cc3C)c(=O)[nH]2)cc1OC
→ -17.3% | -4.7% | -9.0%
Cc1ccc(NCC(=O)N/N=C/c2cccc(Br)c2)cc1
→ 17.0% | -4.3% | -4.9%
CCOC(=O)c1c(C)[nH]c(C(=O)Nc2cc(OCC)c(N3CCOCC3)cc2OCC)c1C
→ ? | -4.9% | -3.6%
O=C(COc1ccc(Br)cc1Cl)NNC(=O)c1ccccc1
→ 1.7% | -8.2% | 2.7%
CC#CC[N+](C)(CC#CC)CC(=O)c1ccccc1
→ -10.5% | 17.1% | -1.8%
Cc1ccc(C(=O)NNCC(=O)Nc2ccc(Cl)cc2F)cc1
→ -10.7% | 2.0% | 0.8%
CC(=O)Nc1ccc(S[C@@H](CCN2CC[C@H](O)CCC2=O)c2ccccc2)cc1
→ 19.5% | 15.2% | -2.1%
CCC(CO)Oc1cc(NC(=O)c2ccc(F)cc2)c2ncn(C(C)C)c2c1 (configuration not stated)
→ 3.4% | -0.9% | 3.5%
CCCn1c(SCC(=O)NC2CCCCC2)nnc1-c1ccccn1
→ -1.0% | 2.5% | 3.7%
COc1cc(OC)cc(-c2c(C#Cc3ccsc3)c3cc(-c4ccc5cc[nH]c5c4)ccc3n2C)c1
→ 8.1% | -7.8% | -0.4%
COc1cccc(CN(C)C(=O)CSCC(=O)Nc2cccc(C)c2)c1OC
→ -26.9% | -16.3% | -5.5%
COc1ccc([C@@H]2CC=C(C(=O)O)CN2S(=O)(=O)c2ccc(Cl)cc2)cc1
→ 3.7% | 4.1% | -19.0%
CCOC(=O)c1c(C)[nH]c(C(=O)CN(C)CC(=O)Nc2ccccc2C(F)(F)F)c1C
→ 2.7% | -15.2% | 0.9%
O=C(OCC(=O)N1CCCC1=O)C1COc2ccccc2O1 (configuration not stated)
→ -2.6% | -11.2% | 1.3%
COc1ccc(NC(=O)c2ccc3c(c2)NC(=O)CS3)cc1
→ 30.9%[activator] | 21.8% | 2.0%
CCCn1c(SCC(=O)Nc2cc(C(=O)O)ccc2C)nc2sc3c(c2c1=O)CCC3
→ -13.9% | -1.8% | -7.7%
O=C(NCCOc1ccccc1F)Nc1ccc(Br)cc1
→ 77.4%[activator] | 9.4% | -1.3%
Cc1nnc(SCC(=O)NCCC2=CCCCC2)[nH]c1=O
→ -1.4% | -0.2% | 1.4%
CC(C)(C)c1ccc2oc(=O)cc(-c3cccc(-c4ccc(C(F)(F)F)cc4)c3)c2c1
→ -13.8% | 9.3% | 15.4%
Cc1ccc2c(c1)C(=O)C(=O)N2Cc1ccc(F)cc1
→ -12.3% | 18.3% | -23.2%
CCOc1ccc(NC(=O)[C@@H]2CCCN2C(=O)c2cccs2)cc1S(=O)(=O)N1CCOCC1
→ -4.4% | -4.7% | -2.1%
O=C(COC(=O)c1ccccc1Cl)Nc1cccnc1Cl
→ 0.3% | -8.6% | -9.6%
Nc1cc(=O)[nH]c(SCC(=O)N2CCCC2)n1
→ -19.8% | 4.9% | 2.3%
COc1cccc(-c2ncc3ccccc3c2COC(=O)CCC(=O)O)c1
→ -18.1% | 0.6% | 0.4%
COC(=O)C1=C(c2cccc(OCc3ccccc3)c2)C[C@@H]2CC[C@H]1N2C(=O)NCCOc1ccccc1
→ -20.7% | -3.0% | 0.9%
COc1ccc2[nH]c(C)c(CCNCc3cc(OC)c4c(c3)OCO4)c2c1
→ ? | 5.5% | 2.3%

Later entries:
Molecule | 2A StopGo | RE007 growth inh | SARS PLP yeast
CCN1CCN(CCNC(=O)c2ccc(/C=C3/Sc4ccccc4N(Cc4cccc(C)c4)C3=O)cc2)CC1 | ? | 15.7% | -7.0%
O=c1[nH]nc(CNc2ccc(OC(F)(F)F)cc2)c2ccccc12 | -8.1% | -0.2% | -22.3%
CCOC(=O)[C@H]1[C@H]2COc3ccccc3[C@@H]2N2C(=O)c3cc(OC)c(OC)cc3NC(=O)[C@@]12C | -22.7% | -7.3% | -2.9%
COc1ccccc1CNC(=O)COC(=O)c1cccs1 | 45.6%[activator] | 3.4% | -0.5%
O=C(COC(=O)/C=C/c1cccc(C(F)(F)F)c1)NC1CCS(=O)(=O)C1 (configuration not stated) | -9.0% | -6.0% | -3.1%
O=C(COc1ccccc1)N[C@@H]1c2ccccc2CC[C@@H]1OCc1ccccc1 | -11.7% | 9.5% | ?
CC(C)c1nc2c(s1)CCc1onc(-c3cccc([N+](=O)[O-])c3)c1-2 | -20.9% | -2.4% | 1.1%
COc1cc(C#Cc2c(-c3cncn3C)n(C)c3ccc(-c4cnc(OC)nc4)cc23)cc(OC)c1 | 0.0% | 0.7% | -14.6%
C[C@H](CO)N1C[C@H](C)[C@@H](CN(C)S(=O)(=O)c2cn(C)cn2)Oc2ccc(NC(=O)Cc3ccccc3)cc2C1=O | -22.3% | -12.7% | 19.3%
CC(C)(CN1CCNCC1)NS(=O)(=O)c1ccc(Cl)cc1 | ? | 1.9% | -7.8%
COc1ccc(S(=O)(=O)NNc2nc(C)cc(C)n2)cc1Br | 6.1% | 15.2% | 0.9%
COc1ccc(-c2nc3ccccn3c2NC2CCCCC2)cc1SC1CCCCC1 | ? | -12.6% | -1.4%
Cc1ccsc1CN(C)C(=O)CN1C(=O)NC2(CCCc3ccccc32)C1=O (configuration not stated) | -28.5% | -19.9% | 9.3%
CCOc1ccc(S(=O)(=O)N2CCOCC2)cc1NC(=O)CN1C(=O)NC2(CCCCC2)C1=O | -10.8% | 4.0% | -6.9%
C=CC[C@]12CCc3ccccc3C1N(c1ccc(C(=O)OCC)cc1)C2=O (some centres not stated) | 0.0% | 16.8% | 0.3%
CC(C)(C)OC(=O)C[C@H]1C/C=C\C[C@H](CC(=O)NCCO)C(=O)N2CCC[C@@H]2COC1=O | -1.6% | 9.3% | 8.0%
Cc1ccccc1C(=O)NC(=S)N(Cc1ccccc1)c1ccccn1 | 20.2% | 0.2% | 1.8%
O=C(CN1c2cccc3cccc(c23)S1(=O)=O)N1CCN(c2ccc(F)cc2)CC1 | ? | -6.2% | 2.5%
C[C@H](CO)N1C[C@H](C)[C@@H](CN(C)C(=O)Nc2ccc(C(F)(F)F)cc2)Oc2ccc(NC(=O)CCC(F)(F)F)cc2C1=O | -7.6% | 19.6% | 1.5%
Cc1cccn2c(=O)c3cc(C(=O)N4CCN(Cc5ccccc5)CC4)sc3nc12 | -5.3% | -7.6% | -27.1%
O=C1c2ccc(-c3ccc(F)cc3OCc3ccccc3)cc2S(=O)(=O)c2cccc(C(=O)N3CCN(c4ncc(Br)cn4)CC3)c21 | -10.9% | 2.9% | 1.5%
CC(=O)Nc1cccc(C(=O)OCC(=O)NC2CCCCCCC2)c1 | -0.1% | -1.9% | 0.2%
CN(C(=O)c1cccc(NC(=O)Cc2ccc([N+](=O)[O-])cc2)c1)C1CCCCC1 | ? | 13.9% | -0.7%
O=C(C1CCCO1)N1CCN(C(=S)NC2CC2)CC1 (configuration not stated) | 14.7% | 0.6% | 1.6%
COc1ccc(CCN(C)C(=O)c2ccc(C)c(S(=O)(=O)N3CCCCC3)c2)cc1OC | ? | -2.3% | 3.4%
O=C(COC(=O)c1cccs1)Nc1cccc(Cl)c1 | -13.9% | -24.1% | 3.2%
CCOCCCNC(=O)CN1CCN(S(=O)(=O)c2ccc3c(c2)CCC3)CC1 | 1.7% | 2.6% | -5.6%
CCOC(=O)[C@@H]1[C@H]2COc3cc(OC)ccc3[C@@H]2N2C(=O)N(c3ccccc3)C(=O)[C@@]12C | -1.9% | -5.2% | 1.4%
COc1ccc(S(=O)(=O)N(C)C[C@H]2Oc3c(NC(=O)Nc4c(C)noc4C)cccc3C(=O)N([C@@H](C)CO)C[C@H]2C)cc1 | 4.7% | -2.2% | 2.9%
CN(C)CCCNC(=O)C[C@H]1C[C@H](C(=O)N2CCOCC2)[C@@]2(C)c3[nH]c4cc(CCC(=O)N(C)C)ccc4c3CCN2C1=O | -10.0% | 0.5% | -6.3%
O=C(NCCCn1ccnc1)C(=O)NCC(c1ccco1)N1CCN(c2ccccc2)CC1 (configuration not stated) | 3.5% | 2.3% | -6.9%
Cc1nn(CC(=O)N(C)C2CCS(=O)(=O)C2)c(C)c1S(=O)(=O)N(C)C (configuration not stated) | -1.3% | 10.2% | -4.8%
O=C(CSc1ccccc1F)NNC(=O)c1cncc(Br)c1 | 22.7% | -4.0% | 3.6%
CCC(CO)Oc1cc(NC(=O)c2ccccc2C)c2ncn(C(C)C)c2c1 (configuration not stated) | -7.5% | -7.8% | 4.3%
COc1cc2cc(CCOC(=O)CCCC(=O)O)oc(=O)c2cc1OC | -1.2% | 6.2% | 1.4%

4 entries from above, sorted by molar mass, falling:
Molecule | 2A StopGo | RE007 growth inh | SARS PLP yeast
COc1ccc(S(=O)(=O)N(C)C[C@H]2Oc3c(NC(=O)Nc4c(C)noc4C)cccc3C(=O)N([C@@H](C)CO)C[C@H]2C)cc1 | 4.7% | -2.2% | 2.9%
Cc1nn(CC(=O)N(C)C2CCS(=O)(=O)C2)c(C)c1S(=O)(=O)N(C)C (configuration not stated) | -1.3% | 10.2% | -4.8%
O=C(CSc1ccccc1F)NNC(=O)c1cncc(Br)c1 | 22.7% | -4.0% | 3.6%
CCC(CO)Oc1cc(NC(=O)c2ccccc2C)c2ncn(C(C)C)c2c1 (configuration not stated) | -7.5% | -7.8% | 4.3%
